# Assay outcomes from PubChem BioAssay.
# A1 apoptosis 2 = compounds inhibiting A1, read as caspase activation; MEF A1-2A-BIM cells, caspase-Glo luminescence, 3 h; percent of clofoctol response, DMSO zero; caspase activation, % (test concentration not listed); 24,000 tested, under 10 active; in the data active = caspase activation above about 5.9%;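 also: wells of about 30 µL received 50 nL stock; the first replicate is given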
#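 System: mouse embryonic fibroblasts co-expressing A1 and BIM (A1-2A-BIM), primed for A1 dependence; amount: 2500 cells/well; doses: 50 nL pinned compound; schedule: cells settled overnight, compound exposure 3 h at 37 °C, 5% CO2; detection: Caspase-Glo 3/7 luminescence, 1 h at room temperature; read-out: Caspase-3/7 activation, seen as rise in luminescence signal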
# * = called active by the depositor. Not all compounds are listed, so the mix of outcomes need not match the whole.
SMILES,A1 apoptosis 2
C[C@H]1CN([C@@H](C)CO)C(=O)c2cccc(NC(=O)Nc3ccc(F)cc3)c2O[C@H]1CN(C)C,0.7
C[C@H](CO)N1C[C@H](C)[C@H](CN(C)S(=O)(=O)c2cn(C)cn2)Oc2ccc(NC(=O)NC3CCCCC3)cc2CC1=O,0.9
Cc1ccc(S(=O)(=O)N(C)C[C@@H]2OCCCC[C@@H](C)Oc3ccc(NC(=O)NC4CCCCC4)cc3C(=O)N([C@@H](C)CO)C[C@H]2C)cc1,1.2
O=C(NCc1nc2ccccc2[nH]1)C1=C[C@H](c2ccc(C(F)(F)F)cc2)C[C@H](OCc2ccc(CO)cc2)O1,0.0
C[C@@H]1CCCCO[C@@H](CN(C)Cc2ccc3c(c2)OCO3)[C@H](C)CN([C@H](C)CO)C(=O)c2cc(N(C)C)ccc2O1,0.7
C[C@H](CO)N1C[C@H](C)[C@@H](CN(C)CC2CC2)Oc2c(NC(=O)c3ccc(-c4nccs4)cc3)cccc2C1=O,-0.7
Cc1ccc(S(=O)(=O)Nc2ccc3c(c2)C(=O)N([C@H](C)CO)C[C@H](C)[C@@H](CN(C)C(=O)C2CCCCC2)OCCCC[C@H](C)O3)cc1,-0.5
Cc1noc(C)c1NC(=O)Nc1cccc2c1O[C@H](CN(C)C(=O)Nc1c(C)noc1C)[C@@H](C)CN([C@@H](C)CO)C2=O,1.1
Cc1noc(C)c1S(=O)(=O)Nc1ccc2c(c1)CC(=O)N([C@@H](C)CO)C[C@@H](C)[C@@H](CN(C)S(=O)(=O)c1ccccc1)O2,-0.2
C[C@@H]1CN([C@@H](C)CO)C(=O)c2cc(NC(=O)C3CC3)ccc2O[C@@H]1CN(C)C(=O)NC1CCCCC1,0.0
C[C@H](CO)N1C[C@H](C)[C@@H](CN(C)C(=O)Nc2ccccc2)OCCCC[C@H](C)Oc2ccc(NS(C)(=O)=O)cc2C1=O,-1.6
O=C(NCc1ccccc1)[C@@]1(CCS(=O)(=O)c2ccccc2)COC(c2ccc(OCCCO)cc2)=N1,0.5
C[C@H](CO)N1C[C@H](C)[C@H](CN(C)Cc2ccc(C(=O)O)cc2)Oc2ccc(NC(=O)C3CC3)cc2C1=O,0.8
Cc1noc(C)c1S(=O)(=O)Nc1ccc2c(c1)C(=O)N([C@H](C)CO)C[C@H](C)[C@@H](CN(C)C(=O)CCC(F)(F)F)OCCCC[C@@H](C)O2,1.3
C[C@H]1CN([C@@H](C)CO)C(=O)c2cccc(NC(=O)C3CC3)c2O[C@@H]1CN(C)C(=O)Nc1ccccc1,-0.1
C[C@H]1CCCCO[C@H](CN(C)C(=O)Nc2ccc3c(c2)OCO3)[C@@H](C)CN([C@@H](C)CO)C(=O)c2cc(NC(=O)Nc3ccc(F)cc3)ccc2O1,-2.2
C[C@@H]1CCCCO[C@H](CN(C)C)[C@@H](C)CN([C@H](C)CO)C(=O)c2cc(NS(=O)(=O)c3cccs3)ccc2O1,1.0
COc1ccc(S(=O)(=O)N(C)C[C@@H]2Oc3ccc(NC(=O)CCCN(C)C)cc3CC(=O)N([C@H](C)CO)C[C@H]2C)cc1,-0.1
C[C@@H]1CN([C@@H](C)CO)C(=O)CCCn2cc(nn2)CO[C@@H]1CN(C)C(=O)Oc1ccccc1,-0.4
COc1ccc(NC(=O)Nc2ccc3c(c2)C(=O)N([C@H](C)CO)C[C@H](C)[C@H](CN(C)CC2CCCCC2)O3)cc1,0.7
C[C@H]1CN([C@@H](C)CO)C(=O)c2cccc(NS(=O)(=O)c3ccc(Cl)cc3)c2O[C@@H]1CN(C)C(=O)Nc1cccc2ccccc12,-0.3
CCOC(=O)c1cn(C[C@H](Cc2ccccc2)NC(=O)N[C@H](CO)CCc2oc(C(C)=O)c(C(=O)OC)c2C(=O)OC)nn1,-0.3
C[C@H]1CN([C@@H](C)CO)C(=O)CCCn2cc(nn2)CO[C@@H]1CN(C)Cc1ccncc1,0.2
Cc1noc(C)c1S(=O)(=O)N(C)C[C@H]1Oc2ccc(NC(=O)CCC(F)(F)F)cc2CC(=O)N([C@H](C)CO)C[C@H]1C,0.7
C[C@@H]1CN([C@H](C)CO)C(=O)c2cccc(NC(=O)C3CCCCC3)c2O[C@H]1CN(C)C(=O)Nc1ccccc1,0.5
C[C@H](CO)N1C[C@H](C)[C@@H](CN(C)S(=O)(=O)c2ccc(Cl)cc2)Oc2c(NC(=O)C3CCOCC3)cccc2C1=O,0.7
C[C@@H]1CN([C@@H](C)CO)C(=O)Cc2cc(NS(C)(=O)=O)ccc2O[C@@H]1CN(C)C,-1.0
COc1ccc(NC(=O)Nc2ccc3c(c2)C(=O)N([C@H](C)CO)C[C@@H](C)[C@@H](CN(C)S(=O)(=O)c2ccccc2)OCCCC[C@H](C)O3)cc1,-1.2
O=C(NO)c1ccc(C(=O)N/N=C/c2cc(Br)ccc2O)cc1,0.6
C[C@@H]1CCCCO[C@H](CN(C)C(=O)Nc2cccc3ccccc23)[C@H](C)CN([C@@H](C)CO)C(=O)c2cc(NC(=O)c3ccncc3)ccc2O1,0.8
COc1ccc(NC(=O)Nc2ccc3c(c2)C(=O)N([C@@H](C)CO)C[C@@H](C)[C@@H](CN(C)Cc2ccccc2)OCCCC[C@H](C)O3)cc1,-0.1
CC(C)NC(=O)Nc1cccc2c1O[C@H](CN(C)Cc1ccc(C(=O)Nc3ccccc3N)cc1)[C@H](C)CN([C@H](C)CO)C2=O,-0.2
Cc1noc(C)c1S(=O)(=O)N(C)C[C@@H]1Oc2c(NC(=O)c3cnccn3)cccc2C(=O)N([C@@H](C)CO)C[C@@H]1C,0.8
CNC[C@H]1Oc2c(NC(=O)Nc3ccc(C(F)(F)F)cc3)cccc2C(=O)N([C@H](C)CO)C[C@@H]1C,-1.3

# Individual results from the results shown.
# Result for Cc1noc(C)c1S(=O)(=O)N(C)C[C@@H]1Oc2c(NC(=O)c3cnccn3)cccc2C(=O)N([C@@H](C)CO)C[C@@H]1C under A1 apoptosis 2: 0.8
# Result for CCOC(=O)c1cn(C[C@H](Cc2ccccc2)NC(=O)N[C@H](CO)CCc2oc(C(C)=O)c(C(=O)OC)c2C(=O)OC)nn1 under A1 apoptosis 2: -0.3
# Result for CC(C)NC(=O)Nc1cccc2c1O[C@H](CN(C)Cc1ccc(C(=O)Nc3ccccc3N)cc1)[C@H](C)CN([C@H](C)CO)C2=O under A1 apoptosis 2: -0.2

# 5 compounds out of the list, arranged by length of the SMILES, smallest number first.
SMILES,A1 apoptosis 2
O=C(NO)c1ccc(C(=O)N/N=C/c2cc(Br)ccc2O)cc1,0.6
C[C@@H]1CN([C@@H](C)CO)C(=O)Cc2cc(NS(C)(=O)=O)ccc2O[C@@H]1CN(C)C,-1.0
C[C@@H]1CN([C@H](C)CO)C(=O)c2cccc(NC(=O)C3CCCCC3)c2O[C@H]1CN(C)C(=O)Nc1ccccc1,0.5
CCOC(=O)c1cn(C[C@H](Cc2ccccc2)NC(=O)N[C@H](CO)CCc2oc(C(C)=O)c(C(=O)OC)c2C(=O)OC)nn1,-0.3
C[C@@H]1CCCCO[C@H](CN(C)C(=O)Nc2cccc3ccccc23)[C@H](C)CN([C@@H](C)CO)C(=O)c2cc(NC(=O)c3ccncc3)ccc2O1,0.8
